MT1-MMP act inh = blockers of MT1-MMP proenzyme processing, primary screen, HT1080 RFP-PRO-GFP cells, GFP/RFP fluorescence. AID 651647, 2012. GFP/RFP ratio change, % at 20 µM. Matrix metalloproteinase-14 (Homo sapiens), P50281. actives 0.061% (n = 360,000). GFP/RFP ratio fluorescence, overnight; percent of plate control window, DMSO zero;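 active = GFP/RFP ratio change of at least 30% with cell ATP level not reduced by more than half and red fluorescence within 50% of control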; also: strong numbers were not always called active
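Test system: HT1080 cells expressing an RFP-PRO-GFP fluorescent reporter construct / Compound dosing: single-point 20 µM compound, 1% DMSO / Schedule: cells overnight before dosing, compound overnight, 37 °C, 5% CO2 / Evaluation: GFP/RFP fluorescence ratio / Control set: DMSO and RFP-L50D-GFP cell wells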
Rce1 inh = yeast Rce1p protease inhibitors, primary screen, biochemical, fluorescence, cell-free homogeneous. CAAX prenyl protease 2 (Saccharomyces cerevisiae (strain ATCC 204508 / S288c)), Q03530. yeast membranes, quenched prenylated peptide cleavage fluorescence. calls only. actives 0.27% (n = 290,000);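 active = fall in fluorescence gain of 50% or more versus controls, with final raw signal at or below 3038400; inconclusive = same 50% fall but final raw signal above 3038400; inactive = fall in fluorescence gain under 50%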;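 also: plate controls were neutral control wells for no effect and wells lacking membranes for full effect; tested at 10 µM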
Target sequence (Q03530 whole entry, looked up): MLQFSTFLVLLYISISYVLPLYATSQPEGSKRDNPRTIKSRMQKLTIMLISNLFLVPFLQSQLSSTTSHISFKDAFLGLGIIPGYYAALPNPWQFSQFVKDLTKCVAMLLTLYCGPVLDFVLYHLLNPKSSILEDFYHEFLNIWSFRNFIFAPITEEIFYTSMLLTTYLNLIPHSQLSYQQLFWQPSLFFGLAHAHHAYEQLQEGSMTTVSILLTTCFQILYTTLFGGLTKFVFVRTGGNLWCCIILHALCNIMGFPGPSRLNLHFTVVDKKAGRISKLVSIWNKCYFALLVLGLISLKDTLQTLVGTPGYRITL
UUG fidelity = modulators of yeast start codon fidelity, primary screen, whole organism, S. cerevisiae, single point, plate reader. S. cerevisiae UUG-firefly luciferase reporter, luminescence/redox ratio. activity score, % at 18.7 µM. actives 0.13% (n = 350,000). AID 602363, 2012;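 active = replicate mean at a twofold rise or more, about +100% in these data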;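 also: firefly luciferase made from a UUG start codon reports start codon fidelity; reporter light over untreated wells divided by growth signal over untreated wells; some hits fall short of that in this replicate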
CSC inhib = cancer stem cell viability inhibitors, primary screen, luminescence | actives 1.1% (n = 300,000) | inhibition, % at 7.5 µM | cancer stem cell-like cells viability;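 active = mean at 75% or more and at least half the replicates too; inconclusive = mean and replicates disagree; tested in HMLE shEcad cells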;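 also: 0% = median of negative and 100% = median of positive control wells; the first replicate is given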
PABP polyA inh = PABP poly(A) RNA binding inhibitors, primary screen, biochemical, fluorescence polarization, uHTS. Polyadenylate-binding protein 1 (Homo sapiens), P11940. inhibition, % at 35 µM. actives 1% (n = 290,000);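 active = 50% or more with normal probe brightness, or confirmed in later tests; inconclusive = above 50% with abnormal brightness, or retests that disagree; inactive = below 50% or failed in later tests; about a fifth of its hits are not listed in these tables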;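 also: calls also rest on retests at 20 µM and on dose response follow-up; controls were probe without protein and protein plus probe with vehicle; some compounds called inactive have numbers as strong as hits; many hits fall short of the cut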
Target sequence (P11940 whole entry, looked up): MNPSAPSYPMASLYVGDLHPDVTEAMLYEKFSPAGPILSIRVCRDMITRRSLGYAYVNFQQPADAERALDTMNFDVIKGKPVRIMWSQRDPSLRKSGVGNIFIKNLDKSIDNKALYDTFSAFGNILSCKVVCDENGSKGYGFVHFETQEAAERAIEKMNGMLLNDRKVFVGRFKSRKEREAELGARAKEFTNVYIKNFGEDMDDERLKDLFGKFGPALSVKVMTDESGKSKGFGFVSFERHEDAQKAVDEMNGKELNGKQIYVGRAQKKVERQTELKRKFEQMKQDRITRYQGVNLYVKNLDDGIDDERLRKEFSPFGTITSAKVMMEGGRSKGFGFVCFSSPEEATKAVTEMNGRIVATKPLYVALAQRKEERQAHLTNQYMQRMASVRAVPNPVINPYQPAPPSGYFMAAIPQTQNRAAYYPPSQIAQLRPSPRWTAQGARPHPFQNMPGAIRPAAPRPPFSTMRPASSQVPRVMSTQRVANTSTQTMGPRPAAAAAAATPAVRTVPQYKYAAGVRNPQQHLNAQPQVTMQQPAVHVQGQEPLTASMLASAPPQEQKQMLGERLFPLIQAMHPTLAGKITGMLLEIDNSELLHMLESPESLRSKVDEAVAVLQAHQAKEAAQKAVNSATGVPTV
Env fusion inh = inhibitors of HIV-1 Env-driven cell-cell fusion, primary screen, HeLa-JRFL effector, CEM21 target cells, luciferase; actives 1.1% (n = 360,000); inhibition, % at 12.3 µM;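 active = mean replicate inhibition score of at least 50 and every replicate individually at or above 50; inconclusive = only one of the two criteria met; inactive = mean below 50 and not all replicates reaching 50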;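 also: 0% = plate neutral controls and 100% = maraviroc near 300 nM; one replicate is shown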
eIF4H inh = human eIF4H binding inhibitors, primary screen, translation initiation inhibitor project, biochemical, uHTS, fluorescence polarization. inhibition, % at 35 µM. actives 0.94% (n = 290,000). Eukaryotic translation initiation factor 4H (Homo sapiens), Q15056. eIF4H fluorescence polarization binding assay. AID 2012, 2009;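 active = 50% or more with normal probe brightness, or confirmed in later tests; inconclusive = above 50% with abnormal brightness, or retests that disagree; inactive = below 50% or failed in later tests; about a fifth of its hits are not listed in these tables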;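 also: calls also rest on retests at 20 µM and on dose response follow-up; 0% = protein and probe with vehicle and 100% = probe without protein; strong numbers were not always called active; many hits fall short of the cut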
eIF4H inh retest = recorded beside eIF4H inh, whose call it bears; inhibition, %; compound at 20 µM; confirmation average;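 mean of two retest wells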
PABP polyA inh retest = further read-out of PABP polyA inh, marked with its call; inhibition, %; compound at 20 µM; confirmation repeats;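 mean of two retest wells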
MT1-MMP act inh RFP = second read-out of MT1-MMP act inh, no call of its own (marks repeat the call); RFP signal change, %; measured here: RFP expression control read;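 0 = vehicle wells; hits needed this value within 50% of zero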
* hit, by the source's call; i = inactive; u = inconclusive; x = no result given.

SMILES | MT1-MMP act inh | MT1-MMP act inh RFP | Rce1 inh | UUG fidelity | CSC inhib | PABP polyA inh | Env fusion inh | eIF4H inh | others
CSCCC1NC2(C(=O)Nc3ccc(Cl)cc32)[C@@H]2C(=O)N(C3CCCC3)C(=O)[C@H]12 (stereo not given in full) | x | x | i | 1 | -13 | 10 | -23 | 8
Cc1cccc(C(=O)N2CCCC(c3nc(-c4ccc(F)cc4)no3)C2)c1 (stereo not given) | 0 | -8 | i | 0 | -16 | 6 | 11 | 2
Oc1cc2c(cc1C(c1ccc(Br)cc1)N1CCCC1)OCO2 (stereo not given) | 0 | -4 | x | x | x | -25 | 8 | -14
COc1cc(C(=O)N2CCC(n3cnc4cc(F)ccc43)CC2)cc(OC)c1OC | -3 | -3 | x | -29 | -17 | -5 | -1 | -5
CC(C)(C)C(=O)OCc1nc(-c2ccc(F)cc2)cs1 | 3 | 3 | i | -17 | -10 | 2 | -24 | -4
O=C(c1ccc(CS(=O)c2cccc(Cl)c2)o1)N1CCOCC1 (stereo not given) | 2 | 6 | i | -13 | -12 | 2 | 13 | 2
CCCNC(=O)C1(C)CCCN(Cc2ccccc2Cl)C1 (stereo not given) | 0 | 4 | x | -7 | x | x | 6 | x
O=C(O)CSCC(=O)N1CCN(c2cc(C(F)(F)F)nc3ccccc23)CC1 | 0 | 5 | i | -14 | -21 | -7 | -4 | -3
CCOc1ncccc1C(=O)Nc1ccc(Cl)cc1 | 1 | 6 | i | x | x | -2 | -280 | -11
O=c1c2[nH]c3ccc(Br)cc3c2ncn1CCCn1ccnc1 | 5 | 4 | i | 19 | 16 | -4 | x | -11
CN(C(=O)C1CCC(CNS(=O)(=O)c2cccc3cccnc23)CC1)C1CCCCC1 (stereo not given) | -7 | -13 | i | -5 | -26 | -4 | -2 | -2
CCCc1ncc(CN2CCCCC2C(=O)Nc2ccc(Oc3ccccc3)nc2)cn1 (stereo not given) | 4 | 2 | i | -5 | 1 | 8 | -2 | 4
CCOc1ccccc1Nc1nnc(C)c(=O)[nH]1 | x | x | i | x | -13 | 6 | 3 | -8
CN(C(=O)Cn1nc(C(=O)O)c2ccccc2c1=O)C1(C#N)CCCCC1 | -1 | 2 | x | -11 | 15 | x | x | x
COCCN(C(=O)CNC(=O)c1ccco1)C(C(=O)NC1CCCC1)c1ccccc1F (stereo not given) | 6 | 5 | i | -2 | 5 | 1 | -3 | 0
Fc1cc(F)c2nc(N3CCCCC3)sc2c1 | -3 | -5 | i | -13 | -5 | -2 | -155 | 3
CC1CCCC(C)N1/N=C/C=C/c1ccccc1[N+](=O)[O-] (stereo not given) | 0 | 2 | i | x | -12 | 0 | -13 | 30
C/C(=N\O)c1noc(C)c1C(=O)Nc1nccs1 | -3 | -2 | i | -10 | 6 | 5 | -12 | 4
CCCc1nc(SCC(=O)Nc2nnc(CC)s2)c2c(C)c(C)sc2n1 | 4 | -6 | i | -8 | 5 | -1 | 14 | 2
COC(=O)c1sc(NC(=O)C(C)c2ccccc2)nc1C (stereo not given) | -8 | -5 | i | -9 | 1 | 3 | -11 | 4
COc1cc(OC)c(C#N)c(S(=O)Cc2ccccc2)c1 (stereo not given) | 7 | 7 | i | -23 | -15 | -2 | -6 | -5
c1nc2sc3c(c2c2nnnn12)CCC3 | -8 | -4 | i | -27 | -6 | -4 | 1 | 12
C#CCOCCOCCOCCNc1nc(N2CCN(C(=O)C(Cc3cc4ccccc4[nH]3)n3cc(C(N)C(C)CC)nn3)CC2)nc(N2CCN(C(=O)C(Cc3cc4ccccc4[nH]3)n3cc(C(N)C(C)CC)nn3)CC2)n1 (stereo not given) | 3 | 8 | i | 20 | -7 | 45 | x | 47
O=C(C1CCCN(Cc2cccnc2)C1)N1CCCCC1 (stereo not given) | -1 | 4 | i | -12 | -10 | 15 | x | -3
Cc1nnc(NC(=O)CCC(=O)NC2CCCCCCC2)s1 | 5 | 5 | i | x | 0 | 0 | -7 | -9
SMILES | MT1-MMP act inh | MT1-MMP act inh RFP | Rce1 inh | UUG fidelity | CSC inhib | PABP polyA inh | Env fusion inh | eIF4H inh | others
CCC(C)Nc1nc(N)c([N+](=O)[O-])c(NCc2ccccc2)n1 (stereo not given) | 9 | 6 | i | -15 | 5 | -6 | 28 | 4
Cc1ccc(NS(=O)(=O)c2ccc(C)c(NC(=S)NCCN3CCOCC3)c2)c(C)c1 | 0 | 0 | x | -3 | -14 | x | x | x
CCCCCOc1ccccc1C(=O)NCCCCCC(=O)O | -3 | -1 | i | -11 | -3 | -4 | -2 | 4
COc1ccc2cc(C(c3nnnn3C3CCCC3)N3CCOCC3)c3nnnn3c2c1 (stereo not given) | -3 | -2 | i | x | -4 | 6 | 2 | -1
CCOc1cc(CNCCO)ccc1OCC(=O)NC(C)(C)C | 2 | 4 | i | -11 | -1 | 8 | 27 | 0
CCCCn1c(N)c(N(CC(C)C)C(=O)CSCc2cccc(C)c2)c(=O)[nH]c1=O | -6 | 1 | i | x | -11 | x | -56 | x
Cc1ccc(N2C(=O)[C@@H]3[C@H](C2=O)[C@H]2C=CC=NN2[C@@H]3C(=O)Nc2ccc(Cl)cc2)cc1 | 1 | 4 | i | 2 | 15 | 6 | -9 | -1
COC(=O)C1OCOC2C(C(=O)OC)OCOC12 (stereo not given) | 1 | 5 | x | -24 | x | x | 3 | x
Cn1c(/C(C#N)=C/Nc2ccccn2)nc2ccccc21 | -10 | 5 | i | -15 | -1 | -4 | -96 | 12
CNc1ccccc1C(=O)OCC(=O)N1CCc2ccccc2C1 | 1 | 4 | x | -15 | x | x | -6 | x
COc1ccc(CNC(=O)c2cc(-c3ccccc3OC)on2)cc1 | 0 | 2 | i | -10 | 6 | 1 | x | -3
Cc1ccc(-c2nc(C#N)c(N3CCC(C)CC3)o2)cc1 | 1 | -1 | i | 0 | 0 | 4 | -1 | -12
CCCCc1nc2ccc(S(=O)(=O)O)cc2[nH]1 | 3 | 2 | i | x | 1 | 2 | -5 | -6
CC(C)c1ccc(-c2c(C#N)c(N)nc(SCC(=O)N3CCCCCC3)c2C#N)cc1 | x | x | i | x | 32 | 20 | -296 | 4
COc1cccc(N2CCN(C(=S)Nc3ccccc3)CC2)c1 | 0 | 0 | i | -9 | -15 | 2 | -16 | -20
CCNC(=O)c1c(O)c2ccccc2[nH]c1=O | 7 | -1 | i | -3 | 8 | 32 | -34 | 0
O=C(NCCN1CCOCC1)c1ccc(CS(=O)(=O)c2c(Cl)cccc2Cl)o1 | 1 | 5 | x | 12 | -25 | -2 | -20 | 3
CC(C)OCCCNC(=O)c1cccc2c1C(=O)c1ccc(Cl)cc1S2(=O)=O | -2 | -1 | x | -19 | -19 | x | -3 | x
O=C1CC2(CCN(C(=O)c3cccc([N+](=O)[O-])c3)CC2)Oc2ccccc21 | 0 | 0 | i | x | 6 | x | 12 | x
Cn1c(COc2ccccc2)nnc1SCCN1CCOCC1 | 0 | 0 | i | 13 | -20 | 33 | u | 10
O=C(CSc1nc(C2CCCCC2)nc2ccccc12)N1CCCC1 | -3 | -9 | i | x | 1 | 1 | 0 | 6
Cc1ccc(-n2nc(C)c(/C=N/NC(=O)c3cccs3)c2Cl)cc1 | 4 | -2 | i | x | 7 | -7 | x | -5
CCn1c(SCC(=O)OC)nc2sc3c(c2c1=O)CCC3 | -2 | 6 | i | -16 | -9 | 17 | x | 72* | eIF4H inh retest=69*;PABP polyA inh retest=47
OC[C@@H]1CN(Cc2ccc3c(c2)OCO3)C[C@H](n2cnc3c(NC4CCC4)ncnc32)O1 | 3 | 0 | x | 3 | x | x | 17 | x
Cc1cc(=O)[nH]c(SCC(=O)NCc2ccco2)n1 | 1 | 8 | i | -21 | 9 | 6 | x | 68 | eIF4H inh retest=0;PABP polyA inh retest=6

Compounds above containing a tert-butyl group:
SMILES | MT1-MMP act inh | MT1-MMP act inh RFP | Rce1 inh | UUG fidelity | CSC inhib | PABP polyA inh | Env fusion inh | eIF4H inh | others
CC(C)(C)C(=O)OCc1nc(-c2ccc(F)cc2)cs1 | 3 | 3 | i | -17 | -10 | 2 | -24 | -4
CCOc1cc(CNCCO)ccc1OCC(=O)NC(C)(C)C | 2 | 4 | i | -11 | -1 | 8 | 27 | 0

Further structures:
SMILES | MT1-MMP act inh | MT1-MMP act inh RFP | Rce1 inh | UUG fidelity | CSC inhib | PABP polyA inh | Env fusion inh | eIF4H inh | others
N#Cc1cccc(NC(=O)COC(=O)c2ccccc2C(=O)c2ccc(Cl)c([N+](=O)[O-])c2)c1 | -13 | -23 | i | 11 | 4 | 10 | -105 | 9
CCOC(=O)Nc1cc(OC)cc2ccc(C)nc12 | 0 | -1 | x | -1 | x | x | 14 | x
CCOc1ccc(C(CC(=O)O)NC(=O)COc2ccccc2)cc1 (stereo not given) | 1 | 2 | i | -6 | -17 | 8 | -52 | 10
COc1cccc(C(=O)NC(C)c2ccc(-c3ccccc3)cc2)c1OC (stereo not given) | -1 | -1 | i | 3 | 22 | 2 | 12 | -4
COc1ccc(-c2cn(CCO)c(-c3ccncc3)n2)cc1 | 1 | 2 | x | -10 | -4 | x | -16 | x
COC(=O)c1sc2cc(C(F)(F)F)cnc2c1-c1ccccc1 | 2 | 2 | i | x | -12 | -2 | x | -4
COc1ccc(CN2CN(S(=O)(=O)c3cccs3)c3nc4ccccc4nc32)cc1 | -3 | -16 | i | x | 18 | 9 | -1 | 5
CCOC(=O)c1sc(NC(=O)C2C3C=CC(C3)C2C(=O)O)nc1C (stereo not given) | -1 | 3 | x | -6 | -10 | 1 | x | -4
Cc1ccc(Cn2c(=N)n(CC(O)c3ccco3)c3ccccc32)cc1 (stereo not given) | -11 | -4 | i | -11 | -2 | 27 | x | 22
Cc1cc(S(=O)(=O)N2CCN(c3ccccc3O)CC2)c(C)s1 | -7 | -6 | i | -3 | -20 | 6 | 14 | -10
CNC(=O)c1c(Br)cnn1-c1ccc(C)cc1 | 0 | -5 | x | -7 | -8 | -6 | -28 | -6
Cc1ncc(CN2CCN(CCC(C)C)C(CCO)C2)s1 (stereo not given) | -1 | 1 | i | x | -5 | -2 | -3 | 0
CCOC(=O)c1c(NC(=O)COC(=O)CCCOc2ccc(OC)cc2)sc(C(=O)NC)c1C | 3 | 3 | i | -2 | -10 | x | -13 | x
CC(C)(C)c1ccc(NC(=O)CN2C(=O)NC(C)(C3CC3)C2=O)cc1 (stereo not given) | 3 | 5 | x | 1 | -6 | x | -3 | x
CC(C)c1ccc(NC2CCCN(C(=O)c3ccc4nccnc4c3)C2)cc1 (stereo not given) | -1 | 2 | i | -13 | x | 12 | -4 | 2
Cc1cc(C)n(C(=O)c2sc3cc(F)ccc3c2Cl)n1 | x | x | i | x | 3 | 7 | x | 2
O=c1nc(N2CCCC2)nc(N2CCCC2)[nH]1 | 0 | -2 | i | -11 | -7 | 11 | -5 | 11
CCCCN1CC(N2CCN(Cc3cccc(C)c3)CC2)CS1(=O)=O (stereo not given) | 3 | 6 | x | -11 | x | x | -10 | x

Screening data from PubChem BioAssay.

This is a random part of the collection. Share with any hit: about 2.9%.
